From PubChem
PrP UTR inh – inhibition of PrP 5' UTR reporter expression; cell-based PrP 5' UTR mRNA reporter, plate reader; inhibition, % (concentration not given with the values); 340,000 tested, 0.35% active;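 active = every replicate at 50% or more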;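 also: 0 = median of the neutral control wells; tested in H4 reporter cells; numbers are from one replicate; inactives centre near -14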
Mtb hypoxia rep – PubChem AID 1159583; M. tuberculosis hypoxia-regulated fluorescent reporter, fluorescence; fluorescence inhibition, % (concentration not given with the values); 300,000 tested, 0.1% active;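 active = 35 to 45% if threefold the growth effect, above 45% if 1.5-fold the growth effect; inactive = the rest, general growth blockers included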;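 also: wells of about 50 µL received 100 nL stock; 0% = vehicle wells and 100% = reference inhibitor wells; whole bacteria with a GFP reporter of the hypoxia response; strong numbers were not always called active; many hits fall short of the cut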
ugtP null kill – growth inhibition of ugtP-null S. aureus, primary screen, RN4220 ugtP deletion, OD600; growth inhibition, % (no concentration beside the values); 16 h; some inactives read as strong as hits; AID 1259309, 2017; 330,000 tested, 0.54% active;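 active = z-score under -3 and OD600 up to 0.15 on both plates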;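 also: plate controls were untreated wells for no effect and antibiotic for full effect; wells of about 80 µL received 100 nL stock; the first replicate is given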
Sa RN4220 lethal – growth inhibition of S. aureus RN4220, primary screen, OD600 | 16 h | inhibition, % (no concentration beside the values) | 330,000 tested, 0.33% active | AID 1259311, 2017;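 active = z-score of -3 or lower and OD600 up to 0.18 on both plates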;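 also: plate controls were untreated cells for no effect and reference antibiotic for full effect; stock transfer was 100 nL into about 80 µL; one replicate is shown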
BJeLR viability – MLPCN primary cell-based screen for lethality selective to Ras in HRASV12 cells; BJeLR (HRASV12) viability, CellTiter-Glo ATP luminescence, 48 h; reference of the scale not given here; inhibition, % (concentration not given with the values); 300,000 tested, 0.17% active;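 active = replicate mean above 50%; inconclusive = above 50% but judged a plate artefact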;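 also: 50 nL library stock added to about 25 µL; numbers are from one replicate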
Autofluor counter – flagged as autofluorescent in microsphere protease counterscreen; compound autofluorescence counterscreen, microsphere flow cytometry; active compounds read high; fluorescence intensity (test concentration not listed); 360,000 tested, 3.1% active; AID 624483;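 active = at least 3 SD above the mean of all compounds, about 16000 in these data; inconclusive = too few beads counted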;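 also: 100 nL of 1 mM stock went into each well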
Mtb hypoxia rep growth – second read-out of Mtb hypoxia rep, no call of its own (marks repeat the call); growth inhibition, %; measured here: M. tuberculosis growth (absorbance);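 0% = vehicle and 100% = reference antibiotic; read after six days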
* marks the source's active call; other numbers are inactive results; ? = inconclusive; · = no result given.

A first look:
SMILES	PrP UTR inh	Mtb hypoxia rep	Mtb hypoxia rep growth	ugtP null kill	Sa RN4220 lethal	BJeLR viability	Autofluor counter
CCN(CC)c1ccc(O)c(C=Nc2ccc(C)c(C)c2)c1	-29	7	-1	8	3.8	2	2838
Cc1cccc(OCC(=O)Nc2nc3ccc([N+](=O)[O-])cc3s2)c1	-17	-6	-1	-12	5.5	8	9524
Cc1ccc(CNC(=O)C2(c3cccs3)CCOCC2)cc1	-7	7	5	5	4.8	-5	7638
Cc1ccc(C2(CCN)CCOC(C(C)C)C2)cc1 (configuration not stated)	-10	-3	0	1	2.7	3	2423
Cc1ccc(NCC(=O)N/N=C\C(Br)=C\c2ccccc2)cc1	-15	·	·	·	·	-6	10220

The list itself, repeating the preview:
SMILES	PrP UTR inh	Mtb hypoxia rep	Mtb hypoxia rep growth	ugtP null kill	Sa RN4220 lethal	BJeLR viability	Autofluor counter
CCN(CC)c1ccc(O)c(C=Nc2ccc(C)c(C)c2)c1	-29	7	-1	8	3.8	2	2838
Cc1cccc(OCC(=O)Nc2nc3ccc([N+](=O)[O-])cc3s2)c1	-17	-6	-1	-12	5.5	8	9524
Cc1ccc(CNC(=O)C2(c3cccs3)CCOCC2)cc1	-7	7	5	5	4.8	-5	7638
Cc1ccc(C2(CCN)CCOC(C(C)C)C2)cc1 (configuration not stated)	-10	-3	0	1	2.7	3	2423
Cc1ccc(NCC(=O)N/N=C\C(Br)=C\c2ccccc2)cc1	-15	·	·	·	·	-6	10220
N#CC1(NC(=O)COC(=O)CCN=C2NS(=O)(=O)c3ccccc32)CCCCC1	-4	·	·	·	·	1	5309
O=C(c1cc(-c2ccc(Cl)cc2)on1)N1CCc2ccccc2C1	-20	0	4	12	4.9	-13	5374
O=C(O)C1CCCCC1C(=O)Nc1ncc([N+](=O)[O-])s1 (configuration not stated)	·	4	12	7	18	·	·
CCc1ccc(C(=O)C(C)OC(=O)C2COc3ccccc3O2)cc1 (configuration not stated)	-26	10	9	5	5.1	-3	2145
C=CCn1c(SCc2ccc(Br)cc2F)nc2cc(C(=O)O)ccc2c1=O	-25	1	4	8	23	-5	4144
CC(C)CCSc1nc(N2CCOCC2)c2c(c1C#N)CC(C)(C)OC2	-10	1	9	48	-5.6	-9	19440*
COc1ccc2[nH]c(-c3ccccc3)cc2c1	-49	11	3	-2	0.2	2	4047
CC(C)(C)OC(=O)N1CCN(C(=O)c2[nH]cnc2C(=O)Nc2nccs2)CC1	-8	20	5	3	6.1	·	2896
CSc1ccc(C=NN2CCN(C)CC2)cc1	·	-6	-5	0	1.8	·	·
CCOC(=O)c1oc2cc(OC(C)=O)ccc2c(=O)c1-c1ccc(OC)c(OC)c1	-6	5	0	7	2.4	12	3643
O=[N+]([O-])c1cccc(/C=N/NC2CCS(=O)(=O)C2)c1 (configuration not stated)	-43	·	·	·	·	-8	3698
COc1ccc(S(=O)(=O)Nc2ccc3cn[nH]c3c2)cc1C	-19	9	7	1	6.4	1	4795
CC(C)OCCCNC(=O)c1ccc2c(c1)NC(=O)c1ccccc1S2	-10	2	4	13	3.0	3	3578
COCCn1c(C)cc(C2=NNC(=Nc3ccccc3F)SC2)c1C	67*	4	0	5	7.9	4	8854
CN(CC(=O)Nc1ccc(F)cc1)C(=O)COC(=O)/C=C/c1ccc(OC(F)F)cc1	-15	10	3	5	4.3	-13	4680
CCOc1ncccc1C(=O)OCC(=O)NCCc1ccccc1	-17	8	6	3	6.0	-5	2473
C=CCn1c(-c2ccc(Cl)cc2)ccc(C#N)c1=O	-28	1	-3	-8	11	-23	5708
Cc1ccc(C#CC(C)(O)C(C)(C)C)cn1 (configuration not stated)	-16	3	8	-2	5.9	0	4198
CCOC(=O)/C(O)=C/c1ncc(C(F)(F)F)cc1Cl	-14	·	·	1	4.1	2	3622
CCCc1cc(=O)n2nc(N3CCC(C(=O)Nc4c(F)c(F)c(F)c(F)c4F)CC3)sc2n1	-22	3	3	6	-0.8	-9	5425
Cn1c(N)c(C(=O)COC(=O)C2CCN(S(=O)(=O)c3cccs3)CC2)c(=O)n(C)c1=O	-14	-9	1	10	2.5	3	3258
CCCN1CCN(S(=O)(=O)c2ccc(-n3cnnn3)cc2)CC1	-5	12	0	11	1.1	1	5186
CCOC(=O)N1CCN(CC(=O)Nc2c(C(=O)OC)[nH]c3ccc(Cl)cc23)CC1	-9	-6	9	-8	-3.1	7	3215
COc1ccc(CCNC(=O)CN2C(=O)C(=O)N(C3CCCC3)C2=O)cc1OC	-14	0	4	5	-0.6	·	8978
O=C1N(c2ccccc2)C(c2ccc(Cl)cc2)N2CCCN12 (configuration not stated)	-8	9	1	3	-1.0	3	2279
O=C(Nc1scc(-c2ccc(F)cc2)c1C(=O)O)c1ccco1	-15	-1	0	-12	9.1	-4	3434
Cc1ccc(C(=O)CC(C(=O)O)n2cnc([N+](=O)[O-])n2)cc1 (configuration not stated)	-26	25	35	1	4.5	-3	4501
Cc1ccc(C(=O)N2CCC3(CC2)Oc2ccc(Cl)cc2C(=O)C32CC(c3ccccc3)=NO2)s1 (configuration not stated)	-21	8	9	-6	4.7	-2	2986
Cn1c(=O)c2c(ncn2CC(=O)Nc2cc(S(=O)(=O)N3CCCCC3)ccc2O)n(C)c1=O	-6	12	7	1	2.1	·	4167
CC(=O)Nc1nc(C)c(Oc2ccccc2)c(=O)[nH]1	-52	5	9	0	0.5	2	20911*
O=C(CCN1CCCC1)Nc1cccc(Br)c1	-21	2	4	3	1.6	-1	2402
O=C(CNC(=O)c1cccc(Br)c1)NN=Cc1ccc2c(c1)OCO2	·	-4	1	11	2.2	·	·
O=C(/C=C/c1ccccc1)NCCCNC(=O)/C=C/c1ccccc1	-20	4	-1	0	3.6	0	5094
Nc1cc(N2CCNCC2)c([N+](=O)[O-])cc1Cl	-6	5	7	7	1.8	-21	2568
O=C(CCn1cnc(-c2ccccc2)c1-c1ccccc1)NN=Cc1ccccc1O	·	-1	-1	-6	-12	·	·
CCC(c1nc2ccccc2c(=O)n1CCN1CCOCC1)N1C(=O)c2ccccc2C1=O (configuration not stated)	-10	12	3	1	0.1	8	20159*
O=C(NN=Cc1cccnc1)c1ccc(Cl)cc1Cl	·	10	4	6	4.3	·	·
O=C(c1ccc2c3c(cccc13)CC2)C1CCCN(C(=O)c2ccc[n+]([O-])c2)C1 (configuration not stated)	-8	13	1	6	-2.6	-5	3945
O=C(CSc1c2c(nc3cc(Cl)ccc13)CCCC2)NCCCN1CCOCC1	-31	14	13	-1	3.4	-4	2619
COc1ccc(/C=C/c2cc(C(F)(F)F)on2)cc1	-52	13	6	12	5.2	-1	3409
CC(=O)c1ccc(NC(=O)CNc2cc(S(=O)(=O)N3CCOCC3)ccc2N2CCCC2)cc1	-92	-1	0	6	0.0	·	7562
COc1cccc(CN(CC(=O)NCc2ccc(F)cc2)C(=O)c2ccco2)c1	-6	14	3	1	3.0	-5	6375
COc1ccc(CCn2c(C)cc(C(=O)CSc3nnnn3-c3ccccc3)c2C)cc1	-10	3	0	-16	2.6	-1	9149
Cc1cccc(N(CC(=O)Nc2ccccc2-c2ccccc2)S(=O)(=O)c2ccccc2)c1C	-72	·	·	·	·	-4	2011
CCCC(c1nnnn1Cc1ccccc1)N1CCN(c2ccccc2OC)CC1 (configuration not stated)	-16	·	·	10	-2.1	-4	2589
COc1ccc(S(=O)(=O)NCc2cccnc2)cc1C(=O)Nc1ccccc1	-11	-1	-5	11	5.4	-5	4481
CCCCn1c(SCC(=O)Nc2cc(C)on2)nnc1-c1cccnc1	-27	5	7	7	4.8	-10	11453
CNc1nc(Cl)nc(NC(C)(C)C)n1	11	4	5	6	6.0	4	3106
O=C(O)/C=C/C(=O)Nc1ccccc1-c1ccccc1	-1	·	·	3	1.0	12	3798
COc1cc(C(=O)OCC(=O)N2CCCCC2C)cc(NC(=O)c2cccs2)c1OC (configuration not stated)	-5	9	10	10	-3.2	-7	3310
O=C(COc1ccccc1)NCC(=O)N1CCCC1	-26	17	2	5	3.2	-13	4716
CCc1c(O)nc(SCc2ccc(F)cc2)[nH]c1=O	-21	·	·	8	4.4	-4	3524
c1ccc(N2CCN(c3nc4ccccc4[nH]3)CC2)nc1	-11	9	5	10	7.3	-2	3451
NS(=O)(=O)c1ccc(NC(=S)NCc2ccc3c(c2)OCO3)cc1	-15	4	5	2	8.2	4	4520
Cc1nnc(SCc2nnc(-c3cccs3)o2)n1Cc1ccccc1	-10	11	5	1	-1.7	-4	3790

In another format: entries from further up
Second line of a record: PrP UTR inh | Mtb hypoxia rep | Mtb hypoxia rep growth | ugtP null kill | Sa RN4220 lethal | BJeLR viability | Autofluor counter
COc1ccc(CCn2c(C)cc(C(=O)CSc3nnnn3-c3ccccc3)c2C)cc1
    -10 | 3 | 0 | -16 | 2.6 | -1 | 9149
Cc1cccc(N(CC(=O)Nc2ccccc2-c2ccccc2)S(=O)(=O)c2ccccc2)c1C
    -72 | · | · | · | · | -4 | 2011

Single records (already shown). Values in the order: PrP UTR inh | Mtb hypoxia rep | Mtb hypoxia rep growth | ugtP null kill | Sa RN4220 lethal | BJeLR viability | Autofluor counter
Results for `COc1cc(C(=O)OCC(=O)N2CCCCC2C)cc(NC(=O)c2cccs2)c1OC` (configuration not stated) : -5 | 9 | 10 | 10 | -3.2 | -7 | 3310
Results for `COc1ccc(S(=O)(=O)NCc2cccnc2)cc1C(=O)Nc1ccccc1` : -11 | -1 | -5 | 11 | 5.4 | -5 | 4481

Next records.
SMILES	PrP UTR inh	Mtb hypoxia rep	Mtb hypoxia rep growth	ugtP null kill	Sa RN4220 lethal	BJeLR viability	Autofluor counter
Cc1c(NP(=O)(c2ccc(Br)cc2)c2ccc(Br)cc2)c(=O)n(-c2ccccc2)n1C	-4	12	14	7	3.8	1	4847
O=C(CC1C(=O)NCCN1C(=O)Nc1ccc(C(F)(F)F)cc1)Nc1ccc(F)cc1 (configuration not stated)	-7	-1	-1	-15	-8.0	-1	5784
CCC(=O)N(C)CCc1cc2c(c(OC)c1C=NNS(=O)(=O)c1ccc(C)cc1)OCO2	·	10	19	12	4.6	·	·
CCN(CC)c1ccc(S(=O)(=O)N2CCOCC2)cc1NC(=O)CSc1n[nH]c(N)n1	-20	1	5	7	3.0	11	·
CCOc1ccc(S(=O)(=O)N/N=C\c2ccc3c(c2)OCO3)cc1	-14	·	·	·	·	2	?
NC(=O)C1CCN(Cc2nc3cc(Cl)ccc3c(=O)[nH]2)CC1	-98	5	5	-4	4.0	7	2847
CCOC(=O)C1(CC2CC2)CCN(C(=O)c2cc(OC)nc3ccccc23)CC1	-33	-3	7	-11	2.2	4	4875
Cc1ccc(F)cc1NC(=O)c1cccc(N(C)C)c1	3	4	2	-1	3.4	2	23271*
COc1ccc2[nH]c3c(c2c1)CCN1C(=O)C(CC(=O)NCCc2ccccn2)C[C@H](C(=O)N2CCCCC2)[C@@]31C (some centres not stated)	-11	-5	-4	-2	-2.4	·	4072
CC(C)C[C@H](NC(=O)N1CCn2c1nc1ccccc12)C(=O)NC1CCCCC1	-7	7	6	2	1.5	-3	5391
CC(C)OC(=O)c1c(NC(=O)c2ccco2)sc2c1CCCC2	9	7	7	37	3.9	-2	3218
COc1ccc(Br)cc1[C@H]1[C@@H]2C=CCC[C@@]2(C)C(=O)N1Cc1ccccc1	-9	·	·	·	·	5	2806
CCOc1ccc2nc(NC(=O)Cn3[nH]c(=O)c4ccccc4c3=O)sc2c1	-45	-8	-2	16	7.9	-16	4959
CCc1cccc(NC(=O)CCNS(=O)(=O)c2cccc3nonc23)c1	-11	16	4	-2	10	1	3969
COCCOCCOCCC(=O)NC1CC2CCC1(C)C2(C)C (configuration not stated)	-7	-1	4	-5	3.7	-11	21940*
COc1cc(Cl)cc(C2NC(=S)NC(c3ccccc3)=C2C(C)=O)c1OCC(=O)O (configuration not stated)	-5	6	5	6	3.6	-5	4188
Cc1oc(N=Cc2ccc(O)cc2O)c(C#N)c1C	·	-5	0	-5	1.6	·	·
CCN1CCN(Cc2ccc(NC(=O)c3ccc(C)c(NC(=O)c4cc(-c5ccc(Br)cc5)n[nH]4)c3)cc2C(F)(F)F)CC1	12	·	·	·	·	2	3359
CCC(CO)Nc1ncnc2onc(-c3ccc(F)cc3)c12 (configuration not stated)	-10	0	-10	5	2.2	-7	2915
O=C(Cc1ccc2ccccc2c1)NC(Cc1ccccc1)C(=O)O (configuration not stated)	-22	1	2	3	3.5	·	3021
CC(OC(=O)C1CCN(S(=O)(=O)c2ccc3c(c2)OCCO3)CC1)C(=O)NC1(C#N)CCCCC1 (configuration not stated)	-24	4	3	4	1.4	·	2788
Cc1noc(C)c1COC(=O)[C@@H](NC(=O)c1ccccc1Cl)C(C)C	-31	4	-1	-1	3.4	7	4168
